Source: PubChem BioAssay
CtBP-E1A inh: blocks the CtBP interaction with E1A. AlphaScreen GST-E1A/His-CtBP binding, 1536-well; stronger effect = lower value; control for the full effect not named in the record. activity change, % (concentration not given with the values). hit rate 0.49% among 340,000; in the data active means activity change below about -65%; inconclusive means about -30% to -65%; inactive means above about -30%; also: % is scaled to controls: 0 for no effect and ±100 for the full control effect
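Steps: dispense buffer (Tris pH 8.0, NaCl 300 mM, TCEP 1 mM, BSA, Tween 20); add 5X protein mix (GST-E1A, His-CtBP, 125 nM each); pin 23 nL compound; 2 h at 37 °C, dark; add 5X beads (50 ug/mL); 1 h; read.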
PINK1 expr mod: modulators of PINK1 expression. PINK1 immunofluorescence, high-content cytometry, 24 h. Potency, µM (top dose mostly 76.6 µM), inactives show top-dose activation (PINK1 increase), usual class: activators. hit rate 0.2% among 410,000; active = well fitted activation curve with a large enough effect; inconclusive = small, poorly fitted or top-dose-only effect; inactive = flat fitted curve, though single readings scatter; cell line not stated here;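 also: potency is read from the fitted curve at half-maximal effect; % of control where 0% means no effect; nearly all actives have a fitted effect of over 65% in size; a mitochondrial uncoupler was the plate control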
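Readout is PINK1 immunofluorescence, quantified alongside mitochondrial, cell and nuclear markers by laser-scanning microplate cytometry. Cells from a stable line were exposed to compound titrations (5 concentrations) for 24 hours, with CCCP controls.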
TRPML1 blocker: inhibitors of human TRPML1 channel; Q9GZU1; TRPML1-inducible cells, Ca2+ dye fluorescence, FDSS; stronger effect = lower value; inhibition of EC80 agonist-evoked calcium signal; activity change, negative = inhibition, % (concentration not given with the values); hit rate 0.02% among 390,000; in the data active means activity change below about -50%; inconclusive means about -30% to -50%; inactive means above about -30%;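 also: stimulus is agonist 54-4 at its EC80 concentration; % is scaled to controls: 0 for no effect and ±100 for the full control effect; compound concentration not given in the record; the text of the record puts the active cut at -80%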
Target sequence (Q9GZU1 whole entry, looked up): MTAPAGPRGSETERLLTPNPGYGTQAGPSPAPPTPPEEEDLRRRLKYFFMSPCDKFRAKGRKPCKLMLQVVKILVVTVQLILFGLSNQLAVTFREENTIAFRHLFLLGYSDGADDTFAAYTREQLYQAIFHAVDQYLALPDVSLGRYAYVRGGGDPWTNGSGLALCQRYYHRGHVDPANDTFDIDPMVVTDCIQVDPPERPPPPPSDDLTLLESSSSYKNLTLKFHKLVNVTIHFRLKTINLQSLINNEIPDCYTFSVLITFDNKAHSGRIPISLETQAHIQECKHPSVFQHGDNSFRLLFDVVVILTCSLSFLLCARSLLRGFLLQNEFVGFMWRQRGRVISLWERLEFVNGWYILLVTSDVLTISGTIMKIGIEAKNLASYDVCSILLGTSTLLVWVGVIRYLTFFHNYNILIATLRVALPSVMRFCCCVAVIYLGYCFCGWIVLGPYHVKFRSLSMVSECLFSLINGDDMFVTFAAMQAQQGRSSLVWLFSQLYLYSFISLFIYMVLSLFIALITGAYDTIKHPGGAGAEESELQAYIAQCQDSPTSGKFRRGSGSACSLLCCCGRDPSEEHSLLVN
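Tet-induced TRPML1-DL cells loaded with Ca8 no-wash calcium dye were read kinetically on FDSS. Compound addition was followed by EC80 agonist 54-4 (4 uM final); inhibition was read over 110 s.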
TRPML1 ag: human mucolipin-1 channel agonism; TRPML1-expressing cells, Ca2+ dye fluorescence, FDSS; host cell line not named in the record; reference of the full effect not given here; hit rate 0.12% among 410,000; activation, % (no concentration beside the values); Q9GZU1; in the data active = activation above about 50%; inconclusive = about 30% to 50%; inactive = below about 30%; also: 0% is about no effect; the text of the record puts the active cut at 80%
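Kinetic FDSS Ca2+ read in Tet-induced TRPML1-DL cells (ABD Ca8 dye plus quencher, 45-90 min RT loading): baseline, then compound, then 110 s agonist window; EC80 agonist 54-4 at 4uM final added afterwards for a 110 s antagonist window.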
D2 ag: agonists of human D2 dopamine receptor (beta-arrestin). hit rate 0.084% among 360,000. AID 624465. activation, % (concentration not given with the values). DiscoveRx PathHunter D2 beta-arrestin, luminescence, 90 min; 100% = 57 uM dopamine signal; in the data active = activation above about 40%; inconclusive = about 15% to 40%; inactive = below about 15%; also: compound concentration not given in the record; the text of the record calls up to 30% inactive
Target sequence (P14416 whole entry, looked up): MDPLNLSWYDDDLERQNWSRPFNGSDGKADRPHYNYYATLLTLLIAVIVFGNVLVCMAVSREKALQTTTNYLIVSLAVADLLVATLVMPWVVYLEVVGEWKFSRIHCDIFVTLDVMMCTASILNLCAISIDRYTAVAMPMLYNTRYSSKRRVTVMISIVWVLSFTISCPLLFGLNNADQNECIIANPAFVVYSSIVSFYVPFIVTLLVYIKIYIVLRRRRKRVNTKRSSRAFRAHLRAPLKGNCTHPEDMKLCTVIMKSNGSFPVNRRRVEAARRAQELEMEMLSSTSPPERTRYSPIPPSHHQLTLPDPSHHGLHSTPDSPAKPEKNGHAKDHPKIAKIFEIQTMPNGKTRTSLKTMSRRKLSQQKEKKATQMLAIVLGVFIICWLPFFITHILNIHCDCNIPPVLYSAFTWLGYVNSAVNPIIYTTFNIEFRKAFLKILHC
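DiscoveRx PathHunter D2 beta-arrestin cells (2,100/well) attached overnight, then compound-stimulated 90 min at 37 C in HBSS/10 mM HEPES/0.1% Tween-20 buffer; beta-galactosidase complementation read by luminescence after 1 h at ambient temperature. Dopamine 57 uM final (EC100) as control.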
Six1-Eya2 blk: Six1/Eya2 interaction inhibition | Q15475+O00167 | AlphaScreen GST-Six1/His-Eya2 binding, biochemical; stronger effect = lower value; control for the full effect not named in the record | activity change, % (test concentration not listed) | hit rate 0.56% among 360,000; in the data active = activity change below about -65%; inconclusive = about -30% to -65%; inactive = above about -30%; also: % is scaled to controls: 0 for no effect and ±100 for the full control effect; compound concentration not given in the record
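AlphaScreen with GST-Six1 and His-Eya2 (5X mix: 250 nM and 500 nM), glutathione donor and nickel acceptor beads; buffer 50 mM Tris pH 8.0, 300 mM NaCl, 1 mM TCEP; 1 h at 37 C in the dark.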
An asterisk follows results filed as active; ? = inconclusive; / = no result given; & = joins results of further samples; [ ] = another dose, or the depositor's remark. Compounds as they come, and some 1% of all compounds hit somewhere here.

SMILES	CtBP-E1A inh	PINK1 expr mod	TRPML1 blocker	TRPML1 ag	D2 ag	Six1-Eya2 blk
C=CCOn1c(=O)c(-c2ccc(Cl)cc2)[n+]([O-])c2ccccc21	-7	6.5%	-5	-0.9	-2.7	3
COn1c(C)c(C)c2c3nonc3ccc21	22	-1.5%	10	0.7	-4.2	19
COc1ccc(N2CCN(C(=O)c3sc4nc(-c5ccc(F)cc5)cn4c3C)CC2)cc1	0	2.2%	-2	0.7	4.4	25
CCc1ccc(CNC(=O)CCCC(=O)n2nc(C)c3ccccc32)cc1	-9	5.1%	-1	0.7	2.1	10
CCOc1ccc(NC(=O)CSc2nnc3c(C)cc4ccccc4n23)cc1	/	8.0%	-13	4.6	/	/
COC(=O)CN(Cc1ccccc1)S(=O)(=O)c1ccc(OC)c(OC)c1	9	-1.9%[38.3 µM]	-3	0.8	-0.6	6
Cc1ccc(S(=O)(=O)c2nc(S(C)(=O)=O)sc2NCc2ccccc2)cc1	/	0.3%	-7	1.2	/	/
CC(C)(C)OC(=O)NN1CC(=O)N2Cc3ccccc3C[C@@H]2C1=O	0	1.6%	/	/	1.5	46
O=C(/C=C/c1ccco1)Nc1ccc(C(=O)N2CCOCC2)cc1	7	-0.8%	13	1.0	-0.8	3
COc1ccccc1C(=O)NCCOc1ccc(C(C)(C)C)cc1	/	2.4%	-14	2.9	4.9	-10
Cc1ccc(CCNc2ccc3ccccc3c2)cn1	-1	0.6%	-9	-0.7	0.2	-12
CCCC(=O)C1C(=O)CC(CC(C)SCC)CC1=O (configuration not stated)	5	0.1%[38.3 µM]	-5	-0.3	-1.8	5
COc1cc(NC(=O)CCN2C(=O)NC3(CCCC3)C2=O)c(OC)cc1Cl	/	-0.4%	11	-0.4	-5.2	-1
Cc1cccc(C(=O)c2ccccc2C(=O)O)c1O	2	-3.4%[38.3 µM]	-3	0.9	-0.7	7
CC(C)NC(=O)CCn1nc(-c2ccc(Cl)cc2)c2ccccc2c1=O	-6	0.4%	16	-0.8	-4.3	2
Cc1ccc(OCC(=O)NNC(=O)Cn2c(=O)cnc3ccccc32)cc1	3	10%	-15	0.7	1.2	5
Cc1cc(C)n2nc(CCCO)nc2n1	12	2.1%	-10	-0.6	-6.8	-2
COc1ccccc1CN1CCN(S(=O)(=O)c2ccc(C)cc2)CC1	-1	0.0%	-11	-0.1	-5.0	-12
COc1ccc(CCNC(=O)CCCc2nnc3n(C)c(=O)c4sccc4n23)cc1OC	-3	0.0%	2	-0.4	-4.5	-8
COc1ccc(C(C)=O)cc1COc1ccc(-n2cnnn2)cc1	-11	-1.9%	42	0.9	14	?

A portion taken from the entries so far:
SMILES	CtBP-E1A inh	PINK1 expr mod	TRPML1 blocker	TRPML1 ag	D2 ag	Six1-Eya2 blk
COc1ccc(N2CCN(C(=O)c3sc4nc(-c5ccc(F)cc5)cn4c3C)CC2)cc1	0	2.2%	-2	0.7	4.4	25
CCc1ccc(CNC(=O)CCCC(=O)n2nc(C)c3ccccc32)cc1	-9	5.1%	-1	0.7	2.1	10
CCOc1ccc(NC(=O)CSc2nnc3c(C)cc4ccccc4n23)cc1	/	8.0%	-13	4.6	/	/
COC(=O)CN(Cc1ccccc1)S(=O)(=O)c1ccc(OC)c(OC)c1	9	-1.9%[38.3 µM]	-3	0.8	-0.6	6
Cc1ccc(S(=O)(=O)c2nc(S(C)(=O)=O)sc2NCc2ccccc2)cc1	/	0.3%	-7	1.2	/	/
CC(C)(C)OC(=O)NN1CC(=O)N2Cc3ccccc3C[C@@H]2C1=O	0	1.6%	/	/	1.5	46
O=C(/C=C/c1ccco1)Nc1ccc(C(=O)N2CCOCC2)cc1	7	-0.8%	13	1.0	-0.8	3
COc1ccccc1C(=O)NCCOc1ccc(C(C)(C)C)cc1	/	2.4%	-14	2.9	4.9	-10
Cc1ccc(CCNc2ccc3ccccc3c2)cn1	-1	0.6%	-9	-0.7	0.2	-12
CCCC(=O)C1C(=O)CC(CC(C)SCC)CC1=O (configuration not stated)	5	0.1%[38.3 µM]	-5	-0.3	-1.8	5
COc1cc(NC(=O)CCN2C(=O)NC3(CCCC3)C2=O)c(OC)cc1Cl	/	-0.4%	11	-0.4	-5.2	-1
Cc1cccc(C(=O)c2ccccc2C(=O)O)c1O	2	-3.4%[38.3 µM]	-3	0.9	-0.7	7
CC(C)NC(=O)CCn1nc(-c2ccc(Cl)cc2)c2ccccc2c1=O	-6	0.4%	16	-0.8	-4.3	2
Cc1ccc(OCC(=O)NNC(=O)Cn2c(=O)cnc3ccccc32)cc1	3	10%	-15	0.7	1.2	5
Cc1cc(C)n2nc(CCCO)nc2n1	12	2.1%	-10	-0.6	-6.8	-2
COc1ccccc1CN1CCN(S(=O)(=O)c2ccc(C)cc2)CC1	-1	0.0%	-11	-0.1	-5.0	-12
COc1ccc(CCNC(=O)CCCc2nnc3n(C)c(=O)c4sccc4n23)cc1OC	-3	0.0%	2	-0.4	-4.5	-8
COc1ccc(C(C)=O)cc1COc1ccc(-n2cnnn2)cc1	-11	-1.9%	42	0.9	14	?

Other entries follow:
SMILES	CtBP-E1A inh	PINK1 expr mod	TRPML1 blocker	TRPML1 ag	D2 ag	Six1-Eya2 blk
COc1ccc(C(=O)N[C@H](C(=O)Nc2cccc(S(=O)(=O)N3CCOCC3)c2)C(C)C)cc1	-13	2.5%	-5	-0.1	-1.1	-4
CCN1CCCC1CNC(=O)c1ccc(N2CCOCC2)c(NS(=O)(=O)c2ccc(OC)cc2)c1 (configuration not stated)	/	-1.5%	-7	0.4	-0.8	-1
O=C(NCCC1=CCCCC1)c1cc(COc2c(F)cccc2F)on1	17	3.1%	7	0.3	-2.1	14
Clc1ccc2nnc(Cl)n2n1	-15	1.2%	80	-0.5	-5.9	-10
COc1ccc(F)cc1S(=O)(=O)Nc1ccc(C)cc1	8	26%	8	1.2	-0.5	15
N#Cc1ccccc1OCC(=O)OCC(=O)c1ccc[nH]1	/	0.8%	19	1.3	-2.1	8
CC(C)C[C@@H](CN1CCCC1CN1C(=S)NC[C@@H]1Cc1ccccc1)N1C[C@H](Cc2ccccc2)N(CC2CCCCCC2)C1=S (some centres not stated)	-2	1.6%	/	0.2	/	-2
O=C(Cc1cccs1)Nc1cc(S(=O)(=O)N2CCCCC2)ccc1Cl	4	2.3%	18	2.0	-0.3	-3
COc1ccc(NS(=O)(=O)c2ccc(-c3cnc(C4CC4)o3)cc2)cc1OC	/	6.7%	24	0.2	3.7	-10
COc1ccc2c(c1)C(=O)N1[C@H]3c4cc(C)ccc4OC[C@@H]3[C@H](c3ccccc3)[C@]1(C)C(=O)N2	-28	2.7%	-19	2.3	-3.8	-5
Cc1cc(C(=O)NCc2ccc(Cl)cc2)n(-c2ccccc2)n1	/	0.0%	-6	1.1	-4.2	0
CCOc1ccc(NC(=O)Cn2ccn3nc(-c4ccc(OC)c(OC)c4)cc3c2=O)cc1	/	2.7%	-15	2.2	/	/
Cc1ccc(-c2nnn(CC(=O)N(Cc3cccs3)C(C(=O)NC3CCCCC3)c3ccco3)n2)o1 (configuration not stated)	-4	3.7%	9	-0.3	-2.9	-2
CC1CCCCN1C(=O)C1CCN(S(=O)(=O)c2ccc(-n3cnnn3)cc2)CC1 (configuration not stated)	4	-1.0%	-10	-0.4	-1.2	15
CCOC(=O)C1(C(F)(F)F)N=C(c2cccnc2)OC(N2CCOCC2)=N1 (configuration not stated)	8	2.0%	-4	-0.7	-2.5	-2
COc1ccc(C2/C=C\CN(S(=O)(=O)c3ccc(-c4ccccc4)cc3)CC(=O)N2Cc2ccc(F)cc2)cc1 (configuration not stated)	-2	1.3%	28&-23	0.8&-0.4	2.0	-6
O=C(CNc1n[nH]c(=O)[nH]c1=O)N/N=C/c1ccccc1	/	-0.4%	4	-0.2	-5.7	2
Cc1c(C(=O)NC(C)C2CC3CCC2C3)cccc1[N+](=O)[O-] (configuration not stated)	6	2.7%	-8	-0.3	-3.2	1
CCOc1ccc(C(=O)NCCN(C)C)cc1	6	2.3%[38.3 µM]	-3	0.5	-3.0	3
CCCn1c(SCC(=O)OCC)nc(C(F)(F)F)cc1=O	6	0.0%	-12	2.6	3.4	3
COCc1cc(C)nc(Nc2ccc(C)cc2C)c1C#N	15	?	10	0.1	-4.0	8
NC(=O)C1CCN(Cc2nc(-c3cccs3)no2)CC1	6	0.4%	4	0.0	-2.6	6
O=C(COc1ccc(Br)cc1Cl)NCCCN1CCOCC1	6	-1.1%	-9	1.3	-3.3	-1
Cc1ccc(Cn2c(S(=O)(=O)O)nc3ccccc32)cc1	-1	-0.2%	8	-0.7	-1.7	3
O=C(O)c1cccc2c1C(=O)N(c1ccccc1)C2	0	0.0%	-18	-0.5	-4.7	6
CCOc1ccc(N(CC(=O)NC2CCCC2)C(=O)Cn2nnc(-c3ccc(C)o3)n2)cc1	-2	3.3%	-15	-0.2	-1.0	-7
Cc1cc(C)c2cc(C(O)c3nnnn3Cc3ccccc3)c(=O)[nH]c2c1 (configuration not stated)	2	-1.1%[38.3 µM]	-4	-0.6	1.2	0
O=C(C1CCN(Cc2cc(Cl)ccc2O)CC1)N1CCN(Cc2ccccc2)CC1	4	2.5%	-2	0.3	-1.7	-6
OC(c1ccccc1)c1ncc(-c2cccc(F)c2)[nH]1 (configuration not stated)	22	1.0%	/	-1.2	-6.8	16
CC1=CS/C(=C(/C#N)C(=O)N2CCCCC2)N1c1ccccc1	2	0.4%	2	-0.3	-0.7	8
Cc1cc(NC(=O)c2ccc(NC(=O)CCS(=O)(=O)c3cccs3)cc2)ccc1Br	/	10%	-9	1.7	/	/
COc1ccc(-n2nc(C(=O)NCC(=O)Nc3ccc(F)cc3)c3ccccc3c2=O)cc1	1	9.6%	1	1.6	3.5	-5
CCOC(=O)C1=C(COC(=O)CSc2ccc(C)cc2C)NC(=O)NC1C (configuration not stated)	4	0.0%	-18	-0.9	-0.1	2
Cc1ccc(Cn2ccc(=O)c(Cc3c(Cl)cccc3Cl)c2C)cc1	-1	-1.7%	0	0.8	-3.2	1
COc1ccc(Cl)cc1NC(=O)Cn1c(=O)c2ccccc2n2nncc12	/	0.7%	11	-0.2	/	/
O=C(c1ccc(F)c(F)c1)N1CCC2(CC1)NCCc1[nH]cnc12	-9	0.3%	-6	-0.5	-4.1	-2
C=CC[n+]1cccc(-c2cc3ccc(C)cc3[nH]2)c1	-5	1.6%	28	0.4	3.7	-1
